GIRK2 act: opens human GIRK2 potassium channels; calls only for hits at 25 µM; AID 1259325; 63,000 compounds, 0.05% hits; HEK293-GIRK2 thallium flux, Thallos fluorescence;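 active = among the strongest 0.2% of first-round signals and kept after retests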;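 also: first round at about 10 µM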
Calls only; i = inactive. An excerpt; rates above refer to the full screens.

| # | SMILES | GIRK2 act |
| --- | --- | --- |
| 1 | CCCCCCCCCC(=O)OC[C@H](COP(=O)([O-])OCC[N+](C)(C)C)OC(=O)CCCCCCCCC | i |
| 2 | Cc1noc(C)c1CC(=O)N1CCN(CC(O)C2CC2)CC1 (stereo unspecified) | i |
| 3 | Cc1csc(CN2CCN(C(=O)COc3ccccc3)CC2)n1 | i |
| 4 | Cc1c(C(=O)c2cccc3ccccc23)c2cccc3c2n1C(CN1CCOCC1)CO3 (stereo unspecified) | i |
| 5 | O=C(NCc1ccc(Cl)cc1)c1cc2cccnc2n(Cc2ccc(F)cc2)c1=O | i |
| 6 | CN1CCCC(C(=O)NCC#CCN2CCOCC2)C1 (stereo unspecified) | i |
| 7 | O=S(=O)(NCC#CCN1CCCC1)c1ccc(Br)s1 | i |
| 8 | c1cc(CN2CCNCC2)cs1 | i |
| 9 | O=S(=O)(NCC#CCN1CCOCC1)c1ccccc1 | i |
| 10 | CC(=O)Nc1ccc(NC(=O)c2cc3cccnc3n(Cc3ccc(Cl)cc3)c2=O)cc1 | i |
| 11 | O=C(CCc1ccccc1)NCC#CCN1CCCC1 | i |
| 12 | CN(C)C(=O)Oc1ccc2c(c1)O/C(=C\c1cccc([N+](=O)[O-])c1)C2=O | i |
| 13 | COc1ccccc1-c1coc2cc(OC(=O)N(C)C)ccc2c1=O | i |
| 14 | Cc1cccc(OCC(=O)N2CCN(Cc3nnnn3-c3cccc(F)c3)CC2)c1 | i |
| 15 | CCCCC/C=C\C/C=C\C/C=C\C/C=C\CCCC(=O)NCC(O)CC(=O)O (stereo unspecified) | i |
| 16 | COCCNC(=O)NCC#CCN1CCOCC1 | i |
| 17 | COc1ccc(CNC(=O)c2cc3cccnc3n(Cc3ccc(F)cc3)c2=O)cc1 | i |
| 18 | COc1cccc(Oc2coc3cc(OC(=O)N(C)C)ccc3c2=O)c1 | i |

Retrieved by compound from the entries so far, 3 records:
| # | SMILES | GIRK2 act |
| --- | --- | --- |
| 4 | Cc1c(C(=O)c2cccc3ccccc23)c2cccc3c2n1C(CN1CCOCC1)CO3 (stereo unspecified) | i |
| 2 | Cc1noc(C)c1CC(=O)N1CCN(CC(O)C2CC2)CC1 (stereo unspecified) | i |
| 17 | COc1ccc(CNC(=O)c2cc3cccnc3n(Cc3ccc(F)cc3)c2=O)cc1 | i |

Ordered by count of non-hydrogen atoms (ascending): some entries from above.
| # | SMILES | GIRK2 act |
| --- | --- | --- |
| 7 | O=S(=O)(NCC#CCN1CCCC1)c1ccc(Br)s1 | i |
| 12 | CN(C)C(=O)Oc1ccc2c(c1)O/C(=C\c1cccc([N+](=O)[O-])c1)C2=O | i |
| 4 | Cc1c(C(=O)c2cccc3ccccc23)c2cccc3c2n1C(CN1CCOCC1)CO3 (stereo unspecified) | i |
